# RE007 growth inh: less growth of the S. pombe RE007 Vpr strain | S. pombe RE007 Vpr strain, BacTiter-Glo ATP luminescence, 24 h; control for the full effect not named in the record | actives 0.21% (n = 360,000) | Potency, µM (highest dose often 92.2 µM), inactives show at the top dose activity change, negative = less growth | AID 651644; active = well fitted falling curve with a large enough effect; inconclusive = small, poorly fitted or top-dose-only effect; inactive = no such curve, though single readings can be large or run the other way;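 note: % is set by controls: 0 for no effect and ±100 for the full control effect; nearly all actives have a fitted effect of over 50% in size; the assay follows cell death caused by Vpr and the record does not say whether a fall means rescue or toxicity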
#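 Fission yeast strain RE007, carrying one chromosomally integrated HIV-1 vpr copy, was seeded at OD 0.01 in PMG+AL medium with 23 nL pinned compound. After 24 h at 30 °C and 99% humidity, viability was read by BacTiter-Glo luminescence.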
# Cruzain inh noDet: cruzain (T. cruzi) inhibition without detergent. P25779. Potency, µM, inactives show max response, negative = inhibition, actives largely listed as inhibitors. AID 1476. actives 2.3% (n = 200,000). purified cruzain, Z-FR-AMC fluorescence, no detergent; active = well fitted curve in the direction sought with a large enough effect; inconclusive = small, poorly fitted or top-dose-only effect, or another doubt; inactive = no such curve, though single readings can be large; an effect the other way counts as inactive or inconclusive;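 note: plate controls were enzyme without inhibitor for no effect and buffer without enzyme for full effect; nearly all actives have a fitted effect of over 40% in size; top concentration of the series not given in the record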
# Target sequence (P25779 123-467 limits assumed): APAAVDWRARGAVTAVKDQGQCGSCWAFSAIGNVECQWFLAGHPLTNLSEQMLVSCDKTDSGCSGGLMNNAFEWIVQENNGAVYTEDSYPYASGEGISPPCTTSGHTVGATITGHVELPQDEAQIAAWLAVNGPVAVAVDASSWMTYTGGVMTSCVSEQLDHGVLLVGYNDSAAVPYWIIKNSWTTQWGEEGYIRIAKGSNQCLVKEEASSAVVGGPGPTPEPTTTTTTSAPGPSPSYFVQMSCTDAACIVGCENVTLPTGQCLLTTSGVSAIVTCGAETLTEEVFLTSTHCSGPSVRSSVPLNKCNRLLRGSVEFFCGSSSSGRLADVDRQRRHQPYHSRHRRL
#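 Purified cruzain at 1.5 nM, pre-incubated 15 min with compound at room temperature in 100 mM sodium acetate pH 5.5, 5 mM DTT, 0.00005% Triton X-100. Reaction started with 2 uM Z-FR-AMC; AMC fluorescence increase over 60 s gives rate.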
# Cruzain Triton: cruzain (T. cruzi) inhibition with detergent; purified cruzain, Z-FR-AMC fluorescence, 0.01% Triton; AID 1478; actives 0.43% (n = 200,000); Potency, µM, for inactives: max response, negative = inhibition, usual class: inhibitors; active = well fitted curve in the direction sought with a large enough effect; inconclusive = small, poorly fitted or top-dose-only effect, or another doubt; inactive = no such curve, though single readings can be large; an effect the other way counts as inactive or inconclusive;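 note: plate controls were neutral wells for no effect and buffer without enzyme for full effect; nearly all actives have a fitted effect of over 40% in size; top concentration of the series not given in the record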
#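 Z-FR-AMC hydrolysis (2 uM substrate) by cruzain (1.5 nM) monitored kinetically at ex 360/em 450 nm after 15 min room-temperature compound exposure; 0.01% Triton X-100, pH 5.5, 5 mM DTT.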
# NS1 function inh: influenza NS1 inhibition | S. cerevisiae slowed by influenza A NS1, growth recovery by OD600 | Potency, µM (doses to about 46.1 µM), without a hit: top-dose activity, positive = more growth | actives 0.4% (n = 270,000); note: actives are rising curves; nearly all actives have a fitted effect of over 50% in size
#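 Compounds were scored for reversing the slow growth caused by influenza A NS1 in S. cerevisiae, measured by optical density at 600 nm. Assay medium contained 2% galactose at pH 6.0; NS1-free yeast of the same strain were the positive control.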
# StopGo reporter: lowers the luciferase signal of an FMDV 2A StopGo reporter | Potency, µM (doses to about 57.9 µM), for inactives: top-dose signal change, negative = less light | AID 1159524 | actives 1.2% (n = 410,000) | human cells with a luciferase reporter of 2A StopGo recoding; control for the full effect not named in the record; active = well fitted falling curve with a large enough effect; inconclusive = small, poorly fitted or top-dose-only effect; inactive = no such curve, though single readings can be large or run the other way; tested in HEK293T cells; note: % is set by controls: 0 for no effect and ±100 for the full control effect; nearly all actives have a fitted effect of over 45% in size; luciferase light after 4 h
# LASV entry inh: inhibitors of Lassa virus binding or cell entry | Lassa virus pseudotype entry inhibition, cell reporter; control for the full effect not named in the record | Potency, µM (titrated, usually from 37.9 µM), without a hit: top-dose activity change, negative = inhibition, hits mostly inhibitors | actives 1.2% (n = 300,000); active means well fitted inhibition curve with a large enough effect; inconclusive means small, poorly fitted or top-dose-only effect, or effect the other way; inactive means flat fitted curve, though single readings scatter; tested in HEK293 cells; note: % is set by controls: 0 for no effect and ±100 for the full control effect; nearly all actives have a fitted effect of over 50% in size; luciferase read-out
# SARS PLP yeast: inhibitors of SARS-CoV papain-like protease in yeast. S. cerevisiae expressing SARS-CoV PLpro, growth rescue; control for the full effect not named in the record. Potency, µM (highest dose often 32.9 µM), for inactives: at the highest dose activity, positive = growth rescue. actives 0.19% (n = 330,000). AID 485353; note: 0% is about no effect; nearly all actives have a fitted effect of over 55% in size; growth read by luminescence after 48 h
# MARV entry inh: inhibitors of Marburg virus binding or cell entry. Marburg virus pseudotyped entry inhibition, cell reporter; control for the full effect not named in the record; about a third of the inactives were read at about 46 µM. Potency, µM (titrated, usually from 37.8 µM), for inactives: at the top dose activity change, negative = inhibition, hits mostly inhibitors. actives 1.8% (n = 300,000). AID 540276; active = well fitted inhibition curve with a large enough effect; inconclusive = small, poorly fitted or top-dose-only effect, or effect the other way; inactive = flat fitted curve, though single readings scatter; tested in HEK293 cells; about a fifth of its hits are not listed in these tables; note: % is set by controls: 0 for no effect and ±100 for the full control effect; luciferase read-out
# Starred values were filed as active, the others as inactive; ? = inconclusive; . = no result given; & = joins results of further samples; [ ] = dose if it differs, or a comment. Unless noted, calls come from the whole dose curve; as a rule, active means well fitted rising curve with a large enough effect; inconclusive means small, poorly fitted or top-dose-only effect; inactive means no such curve, though single readings can be large or run the other way. Potency is the fitted concentration of half-maximal effect.
mol | RE007 growth inh | Cruzain inh noDet | Cruzain Triton | NS1 function inh | StopGo reporter | LASV entry inh | SARS PLP yeast | MARV entry inh
O=C(NC1CCCC1)C1CC(O)CN1C(=O)Nc1ccccc1 (configuration not stated) | -7% | . | . | -2% | -2% | ? | 7% | -4%[46.1 µM]
O=C(CCN1C(=O)COc2ccccc21)NCc1cccs1 | 13% | -3% | -4.1% | -5% | . | -14% | -2% | 0%
O=C(c1ccc(Cl)cc1)N1CCC(N2CCC(C(=O)N3CCOCC3)CC2)CC1 | -3% | . | . | -5% | -6% | -1% | 2% | 1%
COc1cccc(N(CC(=O)O)S(=O)(=O)c2ccccc2)c1 | 3% | -6% | -1.6% | 9% | -7% | 14% | -2% | 6%
O=C1CSC(=NC2CCCCC2)N1 | 2% | -1% | 0.5% | -100% | 0% | -22% | -3% | -17%
C#C[C@]1(O)CC[C@H]2[C@@H]3CCc4cc(OC5CCCC5)ccc4[C@H]3CC[C@@]21C | 1% | . | . | ? | -8% | . | -3% | .
O=C(N/N=C/c1ccco1)c1cc2ccccc2o1 | -6% | . | . | -47% | 61%[activator] | . | -17% | .
COc1cccc2cc(-c3cc(=O)oc4ccc(OCC(C)=O)cc34)oc12 | 2% | . | . | 7% | -8% | . | -3% | .
Cc1ccc(SCCC(=O)NCC2CCCO2)cc1 (configuration not stated) | 16% | -6% | 3.0% | -3% | 5% | 22% | 1% | -4%[46.1 µM]
CN1C(=O)N(C)C2C1N(CN1CCCCC1)C(=O)N2CN1CCCCC1 (configuration not stated) | -7% | -1% | 1.0% | -7% | -4% | 9% | 6% | 13%
COc1ccccc1N1CCN(C(=O)c2oc3ccc(F)cc3c2C)CC1 | 9% | ? | -3.8% | -37% | -13% | ? | -34% | ?
CCOC(=O)NC(=O)CSc1nc2ccc([N+](=O)[O-])cc2[nH]1 | 6% | . | . | 0% | -17% | -3% | 0% | ?
CCOc1cccc(C(=O)Nc2ccc(S(=O)(=O)Nc3cc(C)on3)cc2)c1 | 3% | . | . | 3% | 4% | 3% | -15% | 0%[46.1 µM]
CCOC(=O)N1CCc2c(sc3c2c(=O)n(-c2ccc(F)cc2)c(=O)n3CC(=O)c2ccc(Cl)cc2)C1 | . | -6% | -3.2% | . | -20% | -2%[46.1 µM] | . | -17%[46.1 µM]
CCc1c(C)n([O-])c2c([n+]1=O)CCCCC2 | -2% | 2% | 3.6% | -1% | 0% | 18% | -9% | 9%[46.1 µM]
COc1ccc(-n2nc([N+](=O)[O-])c(=NCCc3ccc(Cl)cc3)n2O)cc1 | -6% | -7% | 1.1% | 4% | . | 3% | -1% | 19%
COc1cccc(-c2csc(NC3OC(=O)c4c3ccc(OC)c4OC)n2)c1 (configuration not stated) | -6% | . | . | -9% | 9% | ? | -3% | 5%[46.1 µM]
COc1ccc(NC(=O)C(c2ccc(Cl)cc2)C(C)C)cn1 (configuration not stated) | -5% | . | . | -53% | -16% | ? | -8% | ?
Cc1ccc(CNC(=O)C2CCC(CNS(=O)(=O)c3cccs3)CC2)cc1 (configuration not stated) | -12% | . | . | -11% | -23% | 0% | 1% | 9%[46.1 µM]
O=C(CCc1ccc(Oc2cc([N+](=O)[O-])cc([N+](=O)[O-])c2)cc1)Nc1cccc(Cl)c1 | -15% | ? | -5.2% | 1% | -19% | 8% | 12% | ?
O=C1OCCC1Sc1nc2cc(Cl)ccc2s1 (configuration not stated) | -6% | -3% | -3.6% | -6% | 21% | 4% | -20% | 6%
CCCCNCCCOc1cccc(Cl)c1Cl | -2% | -2% | 1.3% | -4% | . | -1% | -2% | 15µM*
O=[N+]([O-])c1ccc(NCCOc2ccccc2Cl)nc1 | -4% | . | . | 8% | 12% | . | -10% | .
CCCn1ncc(CN2CCC(Cc3cccc(F)c3)(C(=O)OCC)CC2)c1C | -2% | . | . | 5% | -27% | 3% | 1% | ?
O=C(CSc1nnc(Cn2c(=O)sc3ccccc32)n1-c1ccccc1)NCC1CCCO1 (configuration not stated) | 4% | 6% | 2.3% | -16% | -18% | . | 3% | 1%
O=C(Cc1ccccc1)NNC(=S)NC(=O)c1cccnc1 | -5% | . | . | 10% | -16% | -3%[46.1 µM] | 1% | 1%[46.1 µM]
CCN(c1ccccc1)S(=O)(=O)c1ccc(Cl)c(NC(=O)CN(C)C2CCN(C)CC2)c1 | -9% | . | . | -2% | 14% | -9%[46.1 µM] | -8% | ?
O=c1c2sc3ccccc3c2[nH]c(=S)n1CCN1CCOCC1 | -25% | . | . | . | 53%[activator] | 8% | 1% | ?
CCCC(=O)Nc1ccc2c(c1)nc(CCNC(=O)c1ccccc1)n2C | 1% | 8% | 2.1% | 10% | -20% | 1% | 12% | 0%
O=C(NCCN=C1NS(=O)(=O)c2ccccc21)c1ccncc1 | 16% | -3% | 1.9% | -2% | 1% | 7% | -5% | 29%
CC1CC(C)CN(Cc2nc(N)nc(Nc3ccccc3)n2)C1 (configuration not stated) | 3% | 3% | 2.7% | 3% | -18% | -3% | 6% | 1%
Cc1c(C(=O)Nc2ccc(F)cc2)c2ccccn2c1CCc1ccncc1 | 1% | 12% | -7.6% | 9% | -18% | 29% | -21% | ?
Cc1ccc(NC(=O)CN2C(=O)CCSc3ccccc32)c(C)c1 | . | 1% | -2.2% | . | -18% | . | . | 0%[46.1 µM]
COc1ccccc1N1C(=O)C(Cl)=C(N2CCCC2)C1=O | 4% | . | . | 9% | -4% | 9% | -4% | -9%
O=C(O)c1ccccc1-n1c2ccccc2c2ccccc21 | -3% | . | . | 5% | 20% | 5% | 8% | -23%[46.1 µM]
CCOC(=O)c1c(NC(=O)C2CCCCC2C(=O)O)sc2c1CCCCC2 (configuration not stated) | 10% | . | . | 7% | -19% | -1% | 0% | -9%[46.1 µM]
COc1ccc(CNC(=O)Cn2c(=O)nc(-c3ccccc3)c3cc(Cl)ccc32)cc1OC | . | 11% | -1.7% | . | -4% | ? | . | .
Nc1ccccc1C#CCCCCO | -2% | 0%&11% | 1.3%&-4.2% | 11% | 20% | 8% | -7% | -1%&-1%
O=C(CNC(=O)N1CC(=O)Nc2ccccc21)NCCc1ccc(Cl)cc1 | -10% | . | . | 4% | -7% | . | -11% | .
Cc1cscn1 | 5% | 16% | 0.9% | . | -24% | . | ? | .
CNC(=O)C1CCC(Cn2c(=O)c3sccc3n(CC(=O)NCc3cccc(OC)c3)c2=O)CC1 (configuration not stated) | . | 14% | 0.2% | . | -7% | 21%[46.1 µM] | . | .
CCOC(=O)c1cnc(N2CCN(c3ccc(OC)cc3)CC2)c2ccccc12 | . | 3% | -3.5% | . | ? | 0%[46.1 µM] | . | .
COc1ccc(Nc2nc(Nc3ccc(OC)cc3OC)nc(N3CCOCC3)n2)c(OC)c1 | . | 4% | -2.9% | . | 0% | -18%[46.1 µM] | . | 1µM*
COc1ccc(C2C(=O)N(C3CCCCC3)CC(=O)N2Cc2ccccc2Cl)cc1OC (configuration not stated) | . | 19% | 1.4% | . | -26% | 17%[46.1 µM] | . | .
COc1cccc(C2C3=C(CC(C)(C)CC3=O)Nc3n[nH]c(C)c32)c1 (configuration not stated) | 5% | . | . | . | -5% | 8% | 0% | -16%
COc1ccc(-c2cn3c(n2)sc2cc(C(=O)NC4CCCc5ccccc54)ccc23)cc1 (configuration not stated) | . | 12% | -1.9% | . | 42%[activator] | 7%[46.1 µM] | . | .
C=CCn1c(SCC(=O)Nc2ccc(-c3nc4ccc(C)cc4s3)cc2)nnc1-c1ccncc1 | -9% | 15% | -3.2% | -1% | 33%[activator] | ? | -5% | ?
CCCN1C(=O)c2[nH]nc(-c3ccccc3O)c2C1c1ccc(OCc2ccccc2)c(OCC)c1 (configuration not stated) | . | ? | -6.8% | . | 0% | ? | . | ?
Cc1cccc(NC(=S)NCCN2CCOCC2)c1 | -1% | 0% | -3.4% | -5% | -11% | 20% | 6% | -1%
N#Cc1c(NC(=O)C2CC(c3ccccc3Cl)=NO2)sc2c1CCC2 (configuration not stated) | -3% | 0% | -2.7% | 6% | 9% | 0% | -3% | 6%
CC(NC(=O)CCCCCN1C(=O)c2ccccc2C1=O)c1ccc2c(c1)CCCC2 (configuration not stated) | 16% | 23% | -2.6% | -8% | . | -16% | -4% | 1%
O=Cc1c[nH]c2cccc(OCc3ccccc3)c12 | 23% | . | . | . | 39%[activator] | ? | -8% | 8%
CN(CC(O)COc1ccccc1F)C1CCCCC1 (configuration not stated) | -1% | . | . | 2% | -3% | 5%[46.1 µM] | 0% | ?
CCOC(=O)c1sc(=S)n(-c2cccc(OC)c2)c1N | 4% | -8% | -4.3% | -52% | 5% | -13% | -24% | -5%
Cc1ccc2nc(-c3ccc(N4C(=O)CC(N5CCC(C(N)=O)CC5)C4=O)cc3)sc2c1 (configuration not stated) | . | ? | -3.5% | -5% | . | 4% | -85% | 29%
CN1C=CC(=CC=C2C=CC(=O)C=C2)C=C1 | 15% | . | . | 2% | -8% | . | -1% | .
O=C(CNC(=O)Cn1ccc2ccccc2c1=O)NCCCN1CCN(c2cccc(Cl)c2)CC1 | -20% | -9% | 0.4% | -1% | -16% | 1% | 1% | -29%&-29%
Cc1onc(-c2ccccc2)c1C(=O)N(C)CCc1ccccn1 | 16% | . | . | 7% | -9% | . | 1% | .
COc1cc(C(CC(=O)NCc2ccc(F)cc2)N2Cc3ccccc3C2=O)cc(OC)c1OC (configuration not stated) | . | 2% | -2.9% | . | 40%[activator] | -11%[46.1 µM] | . | .
O=C1C(C2=NC(c3ccccn3)C3C(=O)N(c4ccccc4)C(=O)C23)=C(O)c2ccccc21 (configuration not stated) | -4% | . | . | -32% | -17% | . | 1% | .
COC(=O)c1c(C)[nH]c(C(=O)C(C)Sc2nnc(-c3cc(OC)c(OC)c(OC)c3)o2)c1C (configuration not stated) | -10% | ? | -2.4% | -3% | ? | -2% | -6% | -6%
